UUG fidelity = modulators of yeast start codon fidelity, primary screen, whole organism, S. cerevisiae, single point, plate reader. S. cerevisiae UUG-firefly luciferase reporter, luminescence/redox ratio. activity score, % at 18.7 µM. actives 0.13% (n = 350,000). AID 602363, 2012;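 active = replicate mean at a twofold rise or more, about +100% in these data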;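 also: firefly luciferase made from a UUG start codon reports start codon fidelity; reporter light over untreated wells divided by growth signal over untreated wells; some hits fall short of that in this replicate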
HIV Env fusion = inhibitors of HIV-1 Env-driven cell-cell fusion, primary screen, HeLa-JRFL effector, CEM21 target cells, luciferase; AID 651610, 2012; actives 1.1% (n = 360,000); inhibition, % at 12.3 µM;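 active = mean replicate inhibition score of at least 50 and every replicate individually at or above 50; inconclusive = only one of the two criteria met; inactive = mean below 50 and not all replicates reaching 50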;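 also: 0% = plate neutral controls and 100% = maraviroc near 300 nM; one replicate is shown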
Numbers without * were called inactive; ? = inconclusive; [ ] = remark or other dose. This is a subset; the hit share may differ from the screen's.

UUG fidelity | HIV Env fusion | mol
-6.7 | -8.3[16.7 µM] | C[C@H]1CN([C@@H](C)CO)C(=O)Cc2cc(NS(=O)(=O)c3cn(C)cn3)ccc2O[C@@H]1CN(C)S(=O)(=O)c1ccccc1
-5.4 | -3.2[16.7 µM] | O=C(Nc1ccc2c(c1)[C@H]1C[C@H](CC(=O)N3CCCCC3)O[C@@H](CO)[C@H]1O2)C1CCC1
-1.6 | -0.8[16.7 µM] | C[C@H]1CN([C@@H](C)CO)C(=O)c2cc(NS(=O)(=O)c3cn(C)cn3)ccc2O[C@H]1CN(C)Cc1ccc(C(F)(F)F)cc1
-19.5 | 23.8[16.7 µM] | O=C(C[C@@H]1CC[C@@H](NC(=O)Cc2cccnc2)[C@@H](CO)O1)NCc1ccc2c(c1)OCO2
-1.9 | -2.1[16.7 µM] | Cc1ccc(S(=O)(=O)Nc2ccc3c(c2)C(=O)N([C@@H](C)CO)C[C@@H](C)[C@H](CN(C)C(=O)Cc2ccccc2)OCCCC[C@@H](C)O3)cc1
-2.4 | 4.5[16.7 µM] | Cc1noc(C)c1NC(=O)N(C)C[C@@H]1Oc2ccc(NC(=O)Cn3cnnn3)cc2CC(=O)N([C@H](C)CO)C[C@@H]1C
5.1 | 10.3[16.7 µM] | CCCN1C[C@@H](C)[C@@H](OC)CN(C)C(=O)c2cc(NC(=O)c3ccccc3)ccc2OC[C@H]1C
2.9 | -5.6[16.7 µM] | C[C@H]1CN([C@@H](C)CO)S(=O)(=O)c2ccc(-c3ccncc3)cc2O[C@H]1CN(C)Cc1ccccc1
13.5 | 4.4[16.7 µM] | O=C(C[C@@H]1C=C[C@H](NC(=O)CN2CCOCC2)[C@H](CO)O1)NC1CCCCC1
-0.3 | 14.0[16.7 µM] | COc1ccc(-c2ccc3c(c2)O[C@H](CN(C)C(C)=O)[C@H](C)CN([C@@H](C)CO)S3(=O)=O)cc1
21.9 | 3.3[16.7 µM] | C[C@H](CO)N1C[C@H](C)[C@H](CN(C)S(=O)(=O)c2ccc(F)cc2)Oc2ccc(NS(=O)(=O)c3ccc(F)cc3)cc2CC1=O
-18.2 | 0.9[16.7 µM] | CC(C)C#Cc1cnc2c(c1)C(=O)N([C@@H](C)CO)C[C@H](C)[C@H](CN(C)C(=O)Cc1ccccn1)O2
-4.0 | -11.3[16.7 µM] | O=C(CN1CCOCC1)N[C@H]1CC[C@H](CCn2cc(C3CC3)nn2)O[C@@H]1CO
12.9 | -17.6[16.7 µM] | Cc1noc(C)c1S(=O)(=O)Nc1ccc2c(c1)C(=O)N([C@H](C)CO)C[C@H](C)[C@@H](CN(C)Cc1ccc(C(=O)O)cc1)OCCCC[C@H](C)O2
-6.4 | -23.1[16.7 µM] | C[C@@H]1CCCCO[C@H](CN(C)S(=O)(=O)c2ccccc2)[C@H](C)CN([C@@H](C)CO)C(=O)c2cc(NC(=O)c3ccncc3)ccc2O1
0.7 | 8.9[16.7 µM] | C[C@@H]1CN([C@@H](C)CO)C(=O)c2cc(C#CC3(O)CCCC3)cnc2O[C@H]1CN(C)C(=O)CC1CC1
17.0 | 21.7[16.7 µM] | CC(C)CC#Cc1cnc2c(c1)C(=O)N([C@@H](C)CO)C[C@@H](C)[C@@H](CN(C)C(=O)c1cccnc1)O2
-8.5 | -33.9[16.7 µM] | C[C@@H]1CCCCO[C@@H](CN(C)C(=O)Nc2ccc(F)cc2)[C@H](C)CN([C@H](C)CO)C(=O)c2cc(NC(=O)c3ccccc3)ccc2O1
-10.4 | 5.2[16.7 µM] | COC(=O)C[C@H]1C[C@H]2c3cc(NC(=O)Cc4ccncc4)ccc3O[C@H]2[C@H](CO)O1
7.7 | -27.0[16.7 µM] | O=C(C[C@H]1C[C@@H]2c3cc(NC(=O)CC4CC4)ccc3O[C@@H]2[C@@H](CO)O1)NCc1ccc2c(c1)OCO2
-7.9 | -1.3[16.7 µM] | Cc1ccc(S(=O)(=O)Nc2cccc3c2O[C@@H](CN(C)Cc2ccc(-c4ccccc4)cc2)[C@H](C)CN([C@H](C)CO)C3=O)cc1
-7.1 | 14.3[16.7 µM] | CC(C)CC#Cc1ccc2c(c1)O[C@H](CN(C)Cc1ccncc1)[C@H](C)CN([C@@H](C)CO)S2(=O)=O
8.7 | 0.2[16.7 µM] | COc1ccc(CN2C[C@@H](C)[C@H](OC)CN(C)C(=O)c3ccc(NC(=O)c4nc5ccccc5s4)cc3OC[C@@H]2C)cc1
-3.5 | -67.1[16.7 µM] | C[C@H](CO)N1C[C@H](C)[C@@H](CN(C)S(=O)(=O)c2ccccc2)OCCCC[C@H](C)Oc2ccc(NC(=O)c3ccccc3)cc2C1=O
11.5 | -10.9[16.7 µM] | COc1ccc(NC(=O)N(C)C[C@@H]2Oc3ncc(-c4ccc(C#N)cc4)cc3C(=O)N([C@@H](C)CO)C[C@H]2C)cc1
15.9 | 7.9[16.7 µM] | CNC[C@@H]1Oc2ccc(NC(=O)C3CCCCC3)cc2C(=O)N([C@H](C)CO)C[C@@H]1C
-15.0 | -6.7[16.7 µM] | C[C@@H]1CN([C@H](C)CO)C(=O)c2cc(NC(=O)Nc3cccc4ccccc34)ccc2O[C@@H](C)CCCCO[C@H]1CN(C)C(=O)Nc1ccc(C(F)(F)F)cc1
1.8 | -10.8[16.7 µM] | Cc1noc(C)c1S(=O)(=O)N(C)C[C@H]1Oc2ccc(NC(=O)C3CCCCC3)cc2CC(=O)N([C@@H](C)CO)C[C@@H]1C
13.2 | 22.0[16.7 µM] | Cc1ccc(S(=O)(=O)Nc2cccc3c2O[C@@H](CN(C)C(=O)Nc2ccc(C(F)(F)F)cc2)[C@H](C)CN([C@@H](C)CO)C3=O)cc1
11.2 | 5.8[16.7 µM] | C[C@@H]1CN([C@@H](C)CO)C(=O)c2cc(NC(=O)CCCN(C)C)ccc2O[C@H]1CN(C)S(=O)(=O)c1ccccc1
-4.1 | -7.4[16.7 µM] | C[C@@H]1CN([C@@H](C)CO)C(=O)c2cc(-c3cccc(F)c3)cnc2O[C@H]1CN(C)C(=O)C1CCOCC1
-16.8 | 75.5*[16.7 µM] | COc1ccc(S(=O)(=O)N(C)C[C@@H]2Oc3ccc(NC(=O)Nc4ccc5c(c4)OCO5)cc3C(=O)N([C@H](C)CO)C[C@@H]2C)cc1
-4.8 | 10.9[16.7 µM] | C[C@@H]1CN([C@@H](C)CO)C(=O)c2cc(NC(=O)CCC(F)(F)F)ccc2O[C@@H](C)CCCCO[C@H]1CN(C)Cc1ccc2c(c1)OCO2
9.1 | 12.8[16.7 µM] | CNC[C@H]1OCCCC[C@H](C)Oc2ccc(NC(=O)Nc3c(C)noc3C)cc2C(=O)N([C@H](C)CO)C[C@H]1C
16.9 | 0.3[16.7 µM] | CO[C@H]1CN(C)C(=O)c2ccc(NC(=O)Nc3cc(F)ccc3F)cc2OC[C@@H](C)NC[C@@H]1C
-7.9 | -11.9[16.7 µM] | O=C(C[C@H]1C=C[C@@H](NC(=O)CN2CCOCC2)[C@H](CO)O1)NC1CCC1

Compounds above with a CF3 group, in the order listed:
UUG fidelity | HIV Env fusion | mol
-1.6 | -0.8[16.7 µM] | C[C@H]1CN([C@@H](C)CO)C(=O)c2cc(NS(=O)(=O)c3cn(C)cn3)ccc2O[C@H]1CN(C)Cc1ccc(C(F)(F)F)cc1
-15.0 | -6.7[16.7 µM] | C[C@@H]1CN([C@H](C)CO)C(=O)c2cc(NC(=O)Nc3cccc4ccccc34)ccc2O[C@@H](C)CCCCO[C@H]1CN(C)C(=O)Nc1ccc(C(F)(F)F)cc1
13.2 | 22.0[16.7 µM] | Cc1ccc(S(=O)(=O)Nc2cccc3c2O[C@@H](CN(C)C(=O)Nc2ccc(C(F)(F)F)cc2)[C@H](C)CN([C@@H](C)CO)C3=O)cc1
-4.8 | 10.9[16.7 µM] | C[C@@H]1CN([C@@H](C)CO)C(=O)c2cc(NC(=O)CCC(F)(F)F)ccc2O[C@@H](C)CCCCO[C@H]1CN(C)Cc1ccc2c(c1)OCO2

(further entries)
UUG fidelity | HIV Env fusion | mol
15.0 | 2.0[16.7 µM] | C[C@@H]1CN([C@H](C)CO)C(=O)c2cc(NC(=O)Nc3cccc4ccccc34)ccc2O[C@@H](C)CCCCO[C@@H]1CN(C)S(=O)(=O)c1cn(C)cn1
-23.2 | 5.6[16.7 µM] | CC(C)NC(=O)N(C)C[C@H]1Oc2ccc(NC(=O)C3CC3)cc2CC(=O)N([C@@H](C)CO)C[C@@H]1C
-3.7 | 8.5[16.7 µM] | COC(=O)C[C@@H]1CC[C@@H]2[C@@H](COc3ccc(NC(=O)c4cccc(F)c4)cc3C(=O)N2C)O1
-20.6 | 3.1[16.7 µM] | C[C@H](CO)N1C[C@H](C)[C@@H](CN(C)C(=O)Nc2cccc3ccccc23)Oc2ccc(NC(=O)Nc3ccc(C(F)(F)F)cc3)cc2C1=O
-5.7 | 15.0[16.7 µM] | CN1CCN(C(=O)C[C@H]2CC[C@@H](NC(=O)Cc3ccccn3)[C@@H](CO)O2)CC1
-10.1 | -34.5[16.7 µM] | Cc1ccc(S(=O)(=O)N(C)C[C@H]2OCCCC[C@@H](C)Oc3ccc(NS(=O)(=O)c4ccc(F)cc4)cc3C(=O)N([C@@H](C)CO)C[C@H]2C)cc1
33.2 | ? | C[C@@H]1CCCCO[C@H](CN(C)CC2CCCCC2)[C@H](C)CN([C@H](C)CO)C(=O)c2cc(NC(=O)c3ccccc3)ccc2O1
2.4 | 8.9[16.7 µM] | CC(C)CC#Cc1cnc2c(c1)C(=O)N([C@H](C)CO)C[C@@H](C)[C@H](CN(C)C(=O)c1ccccc1F)O2
-0.7 | 8.2[16.7 µM] | O=C(C[C@H]1C[C@@H]2c3cc(NS(=O)(=O)c4ccccc4)ccc3O[C@@H]2[C@H](CO)O1)N1CCCCC1
4.1 | 10.6[16.7 µM] | COc1ccc(C#Cc2cnc3c(c2)C(=O)N([C@H](C)CO)C[C@H](C)[C@H](CN(C)S(=O)(=O)c2ccc(F)cc2)O3)cc1OC
1.2 | 12.6[16.7 µM] | C[C@H]1CN([C@@H](C)CO)C(=O)c2cc(-c3cccc(F)c3)cnc2O[C@H]1CN(C)C(=O)c1ccccn1
4.2 | -15.2[16.7 µM] | C[C@@H]1CN([C@H](C)CO)C(=O)c2cccc(NS(=O)(=O)c3ccc(Cl)cc3)c2O[C@@H]1CN(C)C(=O)Nc1ccc(F)cc1
9.7 | -4.1[16.7 µM] | Cc1noc(C)c1S(=O)(=O)Nc1ccc2c(c1)C(=O)N([C@H](C)CO)C[C@@H](C)[C@H](CN(C)C)OCCCC[C@@H](C)O2
5.3 | -13.3[16.7 µM] | C[C@@H]1CN([C@@H](C)CO)C(=O)Cc2cc(NC(=O)C3CC3)ccc2O[C@H]1CN(C)C(=O)NC1CCCCC1
10.7 | -11.4[16.7 µM] | COc1ccc(NC(=O)N(C)C[C@H]2Oc3ncc(C#CCC(C)C)cc3C(=O)N([C@@H](C)CO)C[C@H]2C)cc1
9.4 | 11.3[16.7 µM] | C[C@@H]1CN([C@@H](C)CO)C(=O)c2cc(-c3ccc(C#N)cc3)cnc2O[C@H]1CN(C)C(=O)CC1CC1
-0.9 | -4.6[16.7 µM] | CCC(=O)N(C)C[C@@H]1Oc2ncc(/C=C/c3ccccc3)cc2C(=O)N([C@@H](C)CO)C[C@@H]1C
-0.4 | -8.7[16.7 µM] | CNC(=O)C[C@@H]1CC[C@H]2[C@@H](COc3ccc(NC(=O)Nc4ccccc4F)cc3C(=O)N2C)O1
-8.8 | 1.3[16.7 µM] | CC(C)CC#Cc1ccc2c(c1)O[C@@H](CN(C)S(C)(=O)=O)[C@@H](C)CN([C@@H](C)CO)S2(=O)=O
26.3 | -1.7[16.7 µM] | C[C@@H]1CN([C@H](C)CO)C(=O)c2cccc(NC(=O)Nc3ccc(C(F)(F)F)cc3)c2O[C@H]1CN(C)C(=O)Nc1ccc2c(c1)OCO2
13.0 | -4.1[16.7 µM] | CN(C)C(=O)C[C@@H]1C[C@H]2c3cc(NC(=O)NC4CCCCC4)ccc3O[C@H]2[C@H](CO)O1
26.7 | 3.1[16.7 µM] | COc1ccc(NC(=O)N(C)C[C@@H]2Oc3ccc(NC(=O)NC4CCCCC4)cc3CC(=O)N([C@@H](C)CO)C[C@@H]2C)cc1
3.2 | -55.9[16.7 µM] | COc1ccc(NC(=O)N(C)C[C@H]2Oc3ccc(NC(=O)C4CCCCC4)cc3CC(=O)N([C@H](C)CO)C[C@@H]2C)cc1
-7.0 | -13.9[16.7 µM] | COc1ccc(CN(C)C[C@@H]2OCCCC[C@H](C)Oc3ccc(NC(=O)Nc4cccc5ccccc45)cc3C(=O)N([C@@H](C)CO)C[C@H]2C)cc1
-7.2 | -3.6[16.7 µM] | COc1ccc(NC(=O)Nc2ccc3c(c2)C(=O)N([C@H](C)CO)C[C@H](C)[C@@H](CN(C)S(=O)(=O)c2cccs2)OCCCC[C@@H](C)O3)cc1
8.9 | -10.0[16.7 µM] | C[C@@H]1CN([C@@H](C)CO)S(=O)(=O)c2ccc(/C=C/c3ccccc3)cc2O[C@H]1CN(C)Cc1ccc(C(=O)O)cc1
0.4 | 44.2[16.7 µM] | CCNC(=O)C[C@H]1CC[C@@H]2[C@@H](COc3ccc(NC(=O)Nc4cccc(C)c4)cc3C(=O)N2C)O1
3.1 | -18.3[16.7 µM] | Cc1noc(C)c1S(=O)(=O)Nc1ccc2c(c1)C(=O)N([C@H](C)CO)C[C@H](C)[C@@H](CN(C)Cc1ccccc1)O2
-15.4 | 8.9[16.7 µM] | Cc1noc(C)c1S(=O)(=O)Nc1ccc2c(c1)C(=O)N([C@@H](C)CO)C[C@@H](C)[C@@H](CN(C)C(=O)Nc1ccccc1)OCCCC[C@@H](C)O2
0.1 | -6.9[16.7 µM] | CCCNC(=O)C[C@@H]1CC[C@H]2[C@@H](COC[C@@H](O)CN2C(=O)c2ccc(F)cc2)O1
-15.1 | 8.9[16.7 µM] | COCCNC(=O)C[C@H]1C[C@H]2c3cc(NC(=O)Nc4ccccc4F)ccc3O[C@H]2[C@@H](CO)O1

Bioassay records from PubChem BioAssay.
